NS1 function inh: qHTS Assay for Inhibitors of Influenza NS1 Protein Function; hit rate 0.4% among 270,000; Potency, µM (series often up to 46.1 µM), for the others: at the top dose activity, positive = more growth; S. cerevisiae slowed by influenza A NS1, growth recovery by OD600; AID 2326, 2010; active means well fitted rising curve with a large enough effect; inconclusive means small, poorly fitted or top-dose-only effect; inactive means no such curve, though single readings can be large or run the other way; further: nearly all actives have a fitted effect of over 50% in size
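A cell-based growth assay was used: compounds that relieve NS1-induced slow growth of budding yeast raise OD600. Assay medium was yeast nitrogen base with ammonium sulphate and -URA supplement, pH 6.0, with 2% galactose.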
MARV entry inh: qHTS for inhibitors of binding or entry into cells for Marburg Virus; Marburg virus pseudotyped entry inhibition, cell reporter; control for the full effect not named in the record; about a third of the inactives were read at about 46 µM; hit rate 1.8% among 300,000; Potency, µM (series often up to 37.8 µM), for the others: top-dose activity change, negative = inhibition, actives largely listed as inhibitors; AID 540276, 2011; active = well fitted inhibition curve with a large enough effect; inconclusive = small, poorly fitted or top-dose-only effect, or effect the other way; inactive = flat fitted curve, though single readings scatter; tested in HEK293 cells; about a fifth of its hits are not listed in these tables; further: on the % scale 0 is the no-effect control and ±100 the full control effect; luciferase read-out
Lassa entry inh: qHTS for Inhibitors of binding or entry into cells for Lassa Virus. Lassa virus pseudotype entry inhibition, cell reporter; control for the full effect not named in the record. Potency, µM (highest dose often 37.9 µM), inactives show at the highest dose activity change, negative = inhibition, actives largely listed as inhibitors. hit rate 1.2% among 300,000; active means well fitted inhibition curve with a large enough effect; inconclusive means small, poorly fitted or top-dose-only effect, or effect the other way; inactive means flat fitted curve, though single readings scatter; tested in HEK293 cells; further: on the % scale 0 is the no-effect control and ±100 the full control effect; nearly all actives have a fitted effect of over 50% in size; luciferase read-out
Cruzain Triton: qHTS Assay for Promiscuous and Specific Inhibitors of Cruzain (with detergent); Cruzipain (Trypanosoma cruzi), P25779; purified cruzain, Z-FR-AMC fluorescence, 0.01% Triton; Potency, µM, without a hit: max response, negative = inhibition, hits mostly inhibitors; hit rate 0.43% among 200,000; AID 1478, 2009;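 further: plate controls were neutral wells for no effect and buffer without enzyme for full effect; nearly all actives have a fitted effect of over 40% in size; top concentration of the series not given in the record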
Target sequence (P25779 123-467 limits assumed): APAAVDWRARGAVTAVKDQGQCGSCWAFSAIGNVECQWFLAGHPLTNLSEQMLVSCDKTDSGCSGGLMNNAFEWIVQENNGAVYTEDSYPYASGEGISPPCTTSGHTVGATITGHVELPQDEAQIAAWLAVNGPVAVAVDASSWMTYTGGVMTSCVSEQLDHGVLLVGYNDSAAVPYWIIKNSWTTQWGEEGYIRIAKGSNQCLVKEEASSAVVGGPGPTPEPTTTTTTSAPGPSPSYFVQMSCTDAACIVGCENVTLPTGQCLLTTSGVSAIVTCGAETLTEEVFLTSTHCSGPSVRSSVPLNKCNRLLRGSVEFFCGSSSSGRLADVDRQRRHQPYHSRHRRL
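Read-out: AMC fluorescence (360 nm excitation, 450 nm emission), four reads over 2 min, first-to-third difference used. Conditions: cruzain 1.5 nM, Z-FR-AMC 2 uM, pH 5.5 acetate, 5 mM DTT, 0.01% Triton X-100.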
2A StopGo: High Throughput Screening for Foot and Mouth Disease Virus Antivirals; human cells with a luciferase reporter of 2A StopGo recoding; control for the full effect not named in the record; Potency, µM (doses to about 57.9 µM), without a hit: top-dose signal change, negative = less light; hit rate 1.2% among 410,000; active = well fitted falling curve with a large enough effect; inconclusive = small, poorly fitted or top-dose-only effect; inactive = no such curve, though single readings can be large or run the other way; tested in HEK293T cells; further: on the % scale 0 is the no-effect control and ±100 the full control effect; nearly all actives have a fitted effect of over 45% in size; luciferase light after 4 h
Cruzain noTriton: qHTS Assay for Promiscuous and Specific Inhibitors of Cruzain (without detergent); purified cruzain, Z-FR-AMC fluorescence, no detergent; Potency, µM, inactives show max response, negative = inhibition, most hits filed as inhibitors; hit rate 2.3% among 200,000;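 further: plate controls were enzyme without inhibitor for no effect and buffer without enzyme for full effect; nearly all actives have a fitted effect of over 40% in size; top concentration of the series not given in the record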
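Purified cruzain at 1.5 nM, pre-incubated 15 min with compound at room temperature in 100 mM sodium acetate pH 5.5, 5 mM DTT, 0.00005% Triton X-100. Reaction started with 2 uM Z-FR-AMC; AMC fluorescence increase over 60 s gives rate.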
RE007 growth inh: qHTS Assay for Inhibitors of the HIV-1 protein Vpr; AID 651644, 2012; hit rate 0.21% among 360,000; Potency, µM (titrated, usually from 92.2 µM), for the others: top-dose activity change, negative = less growth; S. pombe RE007 Vpr strain, BacTiter-Glo ATP luminescence, 24 h; control for the full effect not named in the record; active = well fitted falling curve with a large enough effect; inconclusive = small, poorly fitted or top-dose-only effect; inactive = no such curve, though single readings can be large or run the other way;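 further: on the % scale 0 is the no-effect control and ±100 the full control effect; nearly all actives have a fitted effect of over 50% in size; the assay follows cell death caused by Vpr and the record does not say whether a fall means rescue or toxicity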
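Fission yeast strain RE007, carrying one chromosomally integrated HIV-1 vpr copy, was seeded at OD 0.01 in PMG+AL medium with 23 nL pinned compound. After 24 h at 30 °C and 99% humidity, viability was read by BacTiter-Glo luminescence.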
SARS PLP yeast: qHTS of Yeast-based Assay for SARS-CoV PLP. S. cerevisiae expressing SARS-CoV PLpro, growth rescue; control for the full effect not named in the record. Potency, µM (top dose mostly 32.9 µM), inactives show at the top dose activity, positive = growth rescue. hit rate 0.19% among 330,000. AID 485353, 2010; active means well fitted rising curve with a large enough effect; inconclusive means small, poorly fitted or top-dose-only effect; inactive means no such curve, though single readings can be large or run the other way; further: 0% is about no effect; nearly all actives have a fitted effect of over 55% in size; growth read by luminescence after 48 h
Starred values were filed as active, the others as inactive; ? = inconclusive; / = not tested or not shown; & = joins results of further samples; [ ] = dose if it differs, or a comment. Unless noted, the call rests on the fitted dose curve; in most records, active means well fitted curve in the direction sought with a large enough effect; inconclusive means small, poorly fitted or top-dose-only effect, or another doubt; inactive means no such curve, though single readings can be large; an effect the other way counts as inactive or inconclusive. Potency means the concentration at half of the fitted maximal effect. Random draw from the library; about 4.6% have a hit in one of these screens.

SMILES | NS1 function inh | MARV entry inh | Lassa entry inh | Cruzain Triton | 2A StopGo | Cruzain noTriton | RE007 growth inh | SARS PLP yeast
Clc1ccc2[nH]c3c(c2c1)CCc1cn[nH]c1-3 | -72% | -1% | -1% | -8.5% | 25% | -7% | 35µM* | -51%
CC(=O)c1c(C)[nH]c(C(=O)NCC2CCCCC2)c1C | -15% | -2%[46.1 µM] | 0%[46.1 µM] | / | 90%[activator] | / | 1% | -4%
CC1=CC=CC2=NC(=O)CC(C)(C(=O)N(CC(=O)NC3CCCC3)c3ccc(F)cc3)N12 (stereo not drawn) | -1% | ? | / | / | -1% | / | -21% | 1%
N#C/C(=C\c1ccc(-c2ccc(C(=O)O)cc2)o1)c1nc2ccccc2[nH]1 | 0% | 10µM* | ? | 6.8% | 0%&22% | 3% | 4% | 0%
COc1ccc(CNCCSc2nnnn2-c2ccccc2)c(OC)c1 | / | -29%[46.1 µM] | 7%[46.1 µM] | -0.7% | -6% | 0% | / | /
CCC(Sc1nncn2c1cc1occc12)C(=O)Nc1ccc(C)c(Cl)c1 (stereo not drawn) | / | / | -3%[46.1 µM] | -6.8% | 0% | -23% | / | /
CCCCN(C(=O)c1cccc(S(=O)(=O)N2CCN(C)CC2)c1)c1c(N)n(CCC)c(=O)[nH]c1=O | / | ? | -2% | / | 2% | / | -20% | -2%
N#Cc1ccccc1NC(=O)C(=O)NCCc1csc(-c2ccc(C(F)(F)F)cc2)n1 | / | / | ? | 1.2% | -11% | 8% | / | /
Cc1cc(C)c(C(=O)CSc2nnc(-c3cccnc3)n2C)c(C)c1 | -4% | 20% | 10% | 2.2% | 7% | 12% | 6% | 6%
CCOc1ccc(CNC(=O)CCS(=O)(=O)Cc2ccc(C)cc2)cc1OC | / | 3% | 2% | / | -17% | / | -19% | 0%
CNc1cccccc1=S | 9% | -4% | 15% | -24% | -3% | -26% | -29% | -6%
CC(=O)C1=C(O)C(=O)N(CC#N)C1c1cccs1 (stereo not drawn) | 0% | 25% | ? | -14% | 24% | 3% | -4% | 0%
Cn1c(SCC(=O)c2ccccc2)nnc1-c1cccnc1 | -6% | -2% | 18% | 4.6% | 72%[activator] | -2% | 27% | -5%
COc1cccc(NC(=O)COC(=O)CCC2CCCC2)c1 | / | 16% | -17% | / | -4% | / | 16% | -6%
CCOC(=O)Cc1ccc(NC(=O)N(Cc2ccc(CC)cc2)Cc2cn[nH]c2-c2ccc(OC)cc2)cc1 | / | ? | ? | -5.3% | -16% | 2% | / | /
Clc1ccc(OCCSc2nnnn2C2CCCCC2)cc1 | -5% | ? | 20% | -3.9% | 14% | -8% | -20% | 12%
CN1c2ccc([N+](=O)[O-])cc2CC2(C(=O)NC(=O)N(c3ccccc3)C2=O)C1c1ccccc1 (stereo not drawn) | 24% | ? | -11% | -8.4% | ? | 0% | 3% | 3%
CSc1ncnc2[nH]ccc12 | / | 9%[46.1 µM] | ? | / | 5% | / | 22% | /
O=c1[nH]c2ccccc2cc1CN(c1ccccc1)S(=O)(=O)c1ccccc1 | 7% | ? | 17% | -4.8% | 0% | 6% | -6% | 14%
Cn1c(=O)c2c(ncn2CC(=O)N2CCCCCC2)n(C)c1=O | -2% | 9% | 8% | / | -1% | / | -2% | -1%
CC(=NCc1ccco1)C1=C(O)c2ccccc2C1=O | -42% | 9% | 10% | -9.1% | / | -1% | -8% | -6%
C=CCn1c(SCC(=O)NC2CC2)nnc1-c1ccccn1 | 7% | / | / | / | -12% | / | -12% | 21%
Cc1cccc(N2CCN(C(=S)c3ccc([N+](=O)[O-])cc3)CC2)c1 | 22% | -12% | -21% | -18% | -11% | -19% | -27% | 7%
Cc1noc(C)c1S(=O)(=O)N(CC(=O)NC1CCCC1)c1ccc(C(C)C)cc1 | 9% | / | / | / | -8% | / | -10% | 2%
CNC(=O)CSc1nc2ccccc2c(=O)n1C1CCCCC1 | -5% | / | / | / | -2% | / | -5% | -1%
O=C(CN1CCOc2ccccc21)NCc1ccc(Cl)cc1 | -15% | 3% | 9% | -0.1% | -11% | 9% | 4% | -1%
Cc1cc(C)cc(C(=O)NCC(=O)OCC(=O)N(C)c2ccccc2)c1 | / | -9%[46.1 µM] | / | / | -18% | / | -16% | 3%
c1csc(-c2cnc3ccccc3n2)c1 | -17% | ? | ? | -8.9% | 49%[activator] | 10% | -7% | 1%
CC1(C)NC(=O)N(CCOCCOc2cccc(Oc3ccccc3)c2)C1=O | -14% | -3% | ? | -1.1% | ? | ? | 11% | 5%
COCCNC(=S)NNC(=O)c1cc(C2CC2)nc2ccccc12 | 17% | 14%[46.1 µM] | -8%[46.1 µM] | / | 10% | / | 2% | 1%
C#CCNC(=O)C1=C[C@@H](c2ccccc2)[C@H](CCCO)[C@@H](OCC)O1 | 5% | / | / | / | -19% | / | 1% | 1%
O=c1c2cc(Br)ccc2[nH]c(=S)n1-c1ccccc1 | 2% | 0% | 13% | / | 20% | / | -1% | 0%
CCN(CC)S(=O)(=O)c1cc(NC(=O)COC(=O)CCc2nc3ccccc3s2)ccc1C | -12% | 7% | 49%[14.3 µM] | -9.5% | -7% | ? | -14% | /
O=[N+]([O-])c1ccc(OCCCCCN2CCOCC2)cc1 | 0% | / | / | / | -9% | / | -1% | -1%
COc1ccc(S(=O)(=O)NCCc2c[nH]c3ccc(C)cc23)cc1 | 11% | / | / | / | 18% | / | 2% | 0%
COc1cccc(/C=C/C(=O)OCC(=O)NCCc2ccccc2)c1 | / | -30%[46.1 µM] | 22% | / | 7% | / | -1% | -8%
O=C(CCc1nc2ccccc2s1)Nc1cccnc1 | / | 5%[46.1 µM] | -14%[46.1 µM] | / | -5% | / | -7% | 2%
O=c1c(Cc2ccccc2)c(O)ccn1Cc1ccco1 | 6% | 11%[46.1 µM] | 2%[46.1 µM] | / | 9% | / | -10% | 1%
COc1ccccc1N1CCN(S(=O)(=O)CCNC(=O)COc2ccc(F)cc2)CC1 | / | / | -20%[46.1 µM] | -5.1% | -4% | ? | / | /
CCN1C(=O)CC(N2CCC(C(=O)OC)CC2)C1=O (stereo not drawn) | -1% | 0% | 3% | 1.2% | -2% | -6% | -19% | -9%
Cc1ccc(CCNc2ncnc3onc(C)c23)cc1 | / | / | -18%[46.1 µM] | -2.8% | ? | 9% | / | /
CCN1CCN(c2nc(-c3ccncc3)nc3ccccc23)CC1 | -8% | 5% | / | -2.0% | / | -5% | / | 2%
C=CCn1cc(C(=O)NCCOC)c(=O)c2cc(S(=O)(=O)N(CC)CC)ccc21 | 2% | 2%&5% | 12µM* | -0.9% | 52%[activator] | 9% | -1% | -6%
OC(COc1c(F)cc(Br)cc1F)CN1CCN(c2ccc(F)cc2)CC1 (stereo not drawn) | -35% | 10% | -24% | 1.8% | ? | 4% | -19% | -10%
COc1ccc(NC(=O)C2CCCN(S(=O)(=O)c3ccc4c(c3)oc(=O)n4C)C2)cc1OC (stereo not drawn) | -7% | / | / | -5.8% | -7% | 7% | 7% | 1%
CCOc1ccc(CCNC(=O)C(CCC(N)=O)NC(=O)OCc2ccccc2)cc1OCC (stereo not drawn) | 0% | 1%[46.1 µM] | -2% | / | -2% | / | -2% | 0%
COc1cc(Cl)c(C)cc1NC(=O)CSc1cc(Cl)ccc1Cl | 14% | -15% | ? | -17% | -13% | ? | 5% | 1%
CC(C)(C)C(=O)NCCCc1nc2ccccc2n1CCCOc1ccc(Cl)cc1 | -20% | ? | ? | -5.1% | 20µM* | ? | -2% | 3%
CCN(CC)CC#Cc1ccc(C)cc1 | -1% | -3% | 6% | / | 6% | / | -3% | 1%
O=C(Nc1ccc(F)cc1)N1CCN(c2ccc(F)cc2)CC1 | -3% | 0%[46.1 µM] | -1%[46.1 µM] | / | -10% | / | 9% | -1%
Carrying on.
SMILES | NS1 function inh | MARV entry inh | Lassa entry inh | Cruzain Triton | 2A StopGo | Cruzain noTriton | RE007 growth inh | SARS PLP yeast
COc1ccccc1CNC(=O)COC(=O)Cc1cccs1 | / | -3% | ? | / | -15% | / | 2% | -1%
COc1ccc(NC(=S)Nc2cccc3ccccc23)cc1OC | 13% | / | / | / | 0% | / | 5% | 16%
Cc1occc1C(=O)N/N=C/c1ccc(N(C)C)cc1 | -42% | ? | ? | / | -45% | / | ? | -4%
O=C(CN1c2ccccc2S(=O)(=O)c2ccccc21)NCc1ccc(F)cc1 | 17% | / | / | / | -28% | / | 7% | -6%
CC1(C)C(=O)Nc2ccccc2N1C(=O)c1ccc([N+](=O)[O-])cc1 | ? | ? | -11% | / | ? | / | 10% | 2%
O=C(Nc1ccc(F)cc1F)N1CCC(c2nc3ccccc3o2)CC1 | / | 15%[46.1 µM] | 13% | / | -27% | / | 24% | 0%
COc1ccc(O)c(C(=O)c2cc(C#N)c(=O)n(-c3c(C)n(C)n(-c4ccccc4)c3=O)c2)c1 | 9% | -22% | ? | -3.7% | 10% | -6% | 12% | 1%
COC(=O)CCc1c(C)[nH]c(C(=O)OCc2ccccc2)c1C | -13% | -13% | 7.1µM* | -4.7%&0.0% | 27% | -3%&3% | -4% | -4%
Cc1cc(=O)oc2c3c(cc(OCC(=O)N[C@@H](Cc4ccccc4)C(=O)O)c12)OC(C)(C)CC3 | 29% | / | / | / | -14% | / | 8% | -6%
COc1ccc(/C=N/NC(=O)CSc2nnc(CCCc3ccc(OC)c(C)c3)o2)cc1 | 7% | ? | 7.9µM* | -3.6% | -27% | 5% | 1% | 4%
O=C(O)c1ccc(-n2nnnc2SCc2cccc(Br)c2)cc1 | 2% | -2%[46.1 µM] | ? | / | -10% | / | -1% | -1%
COc1ccc(-c2nc(=S)n3ccsc3n2)cc1OC | -1% | 15% | 20% | / | 41%[activator] | / | 5% | 1%
Cc1cccc(/C=N/NC(=O)c2cc(C3CC3)nc3ccccc23)n1 | -10% | / | / | / | -7% | / | 5% | -2%
Cc1ccc(C)c(N2CCN(c3ccc(N4C(=O)COCC4=O)cc3[N+](=O)[O-])CC2)c1 | 2% | ? | -3% | -1.2% | 0% | 3% | -4% | -7%

Screens: PubChem BioAssay, National Center for Advancing Translational Sciences (NCATS)
